Screening results as filed in PubChem BioAssay.
Rango dissoc inh: inhibitors of RanGTP-induced Rango-importin beta complex dissociation; Biochemical FRET Rango-importin beta, RanGTP-induced dissociation; hit rate 0.071% among 340,000; Potency, µM (highest dose often 46.1 µM), without a hit: top-dose activity change, negative = inhibition; O95149+P62826; AID 540253; active means falling FRET ratio curve, often poorly fitted, with flat reads before Ran was added; inconclusive means other falling curves, or compound fluorescence or quenching; inactive means flat or rising ratio curve;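 note: potency is the fitted concentration of half-maximal effect; % of control where 0% means no effect; nearly all actives have a fitted effect of over 45% in size; -100% = wells without RanGTP and RCC1; the record marks most hits as doubtful in a second field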
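Compounds preincubate 5 min with complex of recombinant Rango and importin beta in PBS with 1 mM DTT. Ran (0.6 uM) loaded with 2 mM GTP plus 0.2 uM RCC1 starts dissociation; FRET is recorded 45 min later.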
GLA inh pH 4.5: alpha-galactosidase A (human) inhibition, pH 4.5. 230,000 tested, under 10 active. purified enzyme, 4-MU-alpha-Gal fluorescence, pH 4.5. activity change, negative = inhibition, % at 105 µM. AID 1467; inconclusive = small, poorly fitted or top-dose-only inhibition, or a rising curve; inactive = flat fitted curve, though single readings scatter; no compound was filed as active;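 note: 0% = full activity with enzyme and -100% = basal without enzyme; dose as in the result columns while the protocol names 77 µM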
miR-21 FLuc: miR-21 reporter, rising signal; HeLa miR-21 FLuc reporter, luciferase, 48 h; Potency, µM (highest dose often 38.3 µM), for the others: at the top dose reporter change, positive = more light; 340,000 tested, under 10 active; active = well fitted rising curve with a large enough effect; inconclusive = small, poorly fitted or top-dose-only effect; inactive = no such curve, though single readings can be large or run the other way;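 note: % of control where 0% means no effect; miR-21 action dims this reporter so a rising signal means less miR-21 action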
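HeLa miR-21-FLuc reporter line, endogenous miR-21; 2000 cells/well in DMEM/10% FBS; compound titration up to ~40uM final, 48 h, 37 degree Celsius; luciferase detection reagent, 15 min lysis, CCD luminescence.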
Rango-impB inh: Rango-importin beta binding inhibition; hit rate 0.031% among 340,000; Rango CFP/YFP FRET sensor + importin beta, 45 min; Potency, µM (highest dose often 92.2 µM), without a hit: at the top dose inhibition of complex formation; Q14974; active = rising FRET ratio curve, often small or poorly fitted; inconclusive = mostly compound fluorescence or quenching in the first reads; inactive = flat curves in all reads;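 note: potency is the fitted concentration of half-maximal effect; 0% = DMSO wells and 100% = buffer wells lacking importin beta; nearly all actives have a fitted effect of over 15% in size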
Target sequence (Q14974 whole entry, looked up): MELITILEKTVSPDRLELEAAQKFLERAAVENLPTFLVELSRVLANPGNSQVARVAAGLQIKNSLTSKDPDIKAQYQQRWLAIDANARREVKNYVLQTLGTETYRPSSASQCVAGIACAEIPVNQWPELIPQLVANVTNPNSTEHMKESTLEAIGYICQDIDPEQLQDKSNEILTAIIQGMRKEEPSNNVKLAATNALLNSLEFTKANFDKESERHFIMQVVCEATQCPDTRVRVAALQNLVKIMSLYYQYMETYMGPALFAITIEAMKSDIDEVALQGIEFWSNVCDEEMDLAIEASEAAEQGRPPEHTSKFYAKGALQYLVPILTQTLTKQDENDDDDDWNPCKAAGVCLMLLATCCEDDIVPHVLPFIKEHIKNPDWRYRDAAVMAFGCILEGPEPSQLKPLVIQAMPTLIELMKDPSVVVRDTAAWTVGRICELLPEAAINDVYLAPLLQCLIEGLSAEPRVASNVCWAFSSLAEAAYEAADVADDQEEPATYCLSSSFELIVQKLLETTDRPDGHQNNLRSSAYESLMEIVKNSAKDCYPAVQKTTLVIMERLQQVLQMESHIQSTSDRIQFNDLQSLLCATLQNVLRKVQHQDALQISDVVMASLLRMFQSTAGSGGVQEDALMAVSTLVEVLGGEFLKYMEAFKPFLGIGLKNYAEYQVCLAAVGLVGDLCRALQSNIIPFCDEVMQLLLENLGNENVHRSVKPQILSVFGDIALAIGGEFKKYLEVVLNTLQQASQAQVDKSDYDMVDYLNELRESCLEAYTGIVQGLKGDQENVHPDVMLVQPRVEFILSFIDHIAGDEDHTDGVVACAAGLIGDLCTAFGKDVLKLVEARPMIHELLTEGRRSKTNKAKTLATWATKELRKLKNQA
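FRET biosensor (snurportin 1 IBB flanked by EYFP and cerulean), 50 nM, with compound 5 min, then 0.125 microM importin beta in PBS, 1 mM DTT, 0.02% Tween-20, 0.1% BSA. CFP/YFP ratio read after 45 min at room temperature; pre-read flags interference.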
* = called active by the depositor; & = joins results of further samples; [ ] = remark or other dose. These rows are one share of the data (hit frequency here may not be typical).

What do the screens show for `COc1ccc(-c2nn3cnnc3s2)cc1OC`?
Rango dissoc inh: 16%; GLA inh pH 4.5: 11; miR-21 FLuc: -25%; Rango-impB inh: 1.1%

What do the screens show for `NC(=O)c1ccccc1N=Cc1ccc2ccccc2c1`?
Rango dissoc inh: -6%; GLA inh pH 4.5: -4; miR-21 FLuc: 0%; Rango-impB inh: 5.9%

How did Cc1cc(C)nc(N/N=C/c2sccc2C)n1 do in these assays?
Rango dissoc inh: -1%; GLA inh pH 4.5: 4; miR-21 FLuc: -16%; Rango-impB inh: 0.5%

What do the screens show for `O=C(Nc1ccc(S(=O)(=O)N2CCOCC2)cc1)c1ccccc1Br`?
Rango dissoc inh: 17%; miR-21 FLuc: -2%; Rango-impB inh: -0.2%

Results for O=C(NCCCn1ccnc1)c1cn(-c2ccccc2)nc1-c1ccccc1 ?
Rango dissoc inh: -9%; GLA inh pH 4.5: 7; miR-21 FLuc: -22%; Rango-impB inh: -0.7%

Results for CN(CCC1CCCCO1)C(=O)c1cc(COc2ccc(F)cc2F)on1 (centres undefined) ?
Rango dissoc inh: -3%; miR-21 FLuc: -11%; Rango-impB inh: -2.8%

Results for Cc1cc(C)c(NC(=O)CN2C(=O)NC3(CCc4ccccc43)C2=O)c(Cl)c1 (centres undefined) ?
Rango dissoc inh: 19%; Rango-impB inh: 2.1%

What do the screens show for `CC(=O)N1CCCN(C(=O)c2cc(COc3c(F)cccc3F)on2)CC1`?
Rango dissoc inh: 0%; miR-21 FLuc: -9%; Rango-impB inh: -2.2%

How did COC(=O)Cc1c(C)nc2nc(Cc3ccccc3)[nH]n2c1=O do in these assays?
Rango dissoc inh: 1%; GLA inh pH 4.5: -2; miR-21 FLuc: -3%; Rango-impB inh: 0.3%

What do the screens show for `Cc1ccccc1N(C(=O)CNC(=O)c1cccs1)C(C(=O)NC1CCCC1)c1ccncc1` (centres undefined)?
Rango dissoc inh: 2%; miR-21 FLuc: 0%; Rango-impB inh: -2.3%

How did COC(=O)c1ccc(CSc2nc3c(cnn3-c3ccc(F)cc3)c(=O)[nH]2)o1 do in these assays?
Rango dissoc inh: -2%; GLA inh pH 4.5: 5; miR-21 FLuc: -21%; Rango-impB inh: -4.7%

What do the screens show for `CC(Oc1ccccc1Cl)C(=O)Nc1ccc(S(=O)(=O)N2CCN(C)CC2)cc1` (centres undefined)?
Rango dissoc inh: 1%; Rango-impB inh: -0.5%

How did CCC(Sc1nc(C)cc(C)n1)C(=O)NC1=NN=C(c2ccc(C)cc2)CS1 (centres undefined) do in these assays?
Rango dissoc inh: 14%; GLA inh pH 4.5: -8; miR-21 FLuc: 25%; Rango-impB inh: -3.9%

What do the screens show for `CN(C(=O)c1cc([N+](=O)[O-])ccc1NCc1cccnc1)c1ccccc1`?
Rango dissoc inh: 5%; miR-21 FLuc: -1%; Rango-impB inh: 5.2%

What do the screens show for `Cc1c(-c2ccccc2)oc2c(C(=O)OCC(=O)Nc3ccc(C(N)=O)cc3)cccc2c1=O`?
Rango dissoc inh: 2%; GLA inh pH 4.5: -4; miR-21 FLuc: 0%; Rango-impB inh: -5.6%

How did COc1ccc(/C=C/C(=O)NCCCN2CCOCC2)cc1 do in these assays?
Rango dissoc inh: 15%; miR-21 FLuc: -7%; Rango-impB inh: -0.2%

What do the screens show for `O=C(COC(=O)c1ccc(Cl)nc1)NCc1ccc2c(c1)OCO2`?
Rango dissoc inh: -22%; GLA inh pH 4.5: 10; miR-21 FLuc: -3%; Rango-impB inh: 0.2%

What do the screens show for `COc1cc(/C=N/NC(N)=O)ccc1OCC(=O)Nc1ccc(C)c(C)c1`?
Rango dissoc inh: 29%; GLA inh pH 4.5: -17; miR-21 FLuc: -22%; Rango-impB inh: 4.7%

How did CCOC(=O)C1(Cc2ccccc2)CCCN(CCO)C1 (centres undefined) do in these assays?
Rango dissoc inh: 12%; GLA inh pH 4.5: -4; miR-21 FLuc: -2%; Rango-impB inh: -2.9%

What do the screens show for `Cc1ccc(Nc2nnc(-c3ccc4c(c3)OCO4)o2)c(C)c1`?
Rango dissoc inh: 6%; GLA inh pH 4.5: -7; miR-21 FLuc: -51%; Rango-impB inh: 3.9%

What do the screens show for `CSCCOC(=O)COc1ccc(/C=N/NC(=O)c2nn(C)cc2Cl)cc1`?
Rango dissoc inh: 1%; GLA inh pH 4.5: 2; miR-21 FLuc: -26%; Rango-impB inh: -1.6%

What do the screens show for `O=C(NCCC1=CCCCC1)c1cnccn1`?
Rango dissoc inh: 4%; GLA inh pH 4.5: -8; miR-21 FLuc: -40%; Rango-impB inh: -0.1%

What do the screens show for `Cc1ccc(C(=O)Nc2cccc([N+](=O)[O-])c2)cc1S(=O)(=O)Nc1cccc(C(=O)O)c1`?
Rango dissoc inh: -4%; GLA inh pH 4.5: 7; miR-21 FLuc: -1%; Rango-impB inh: 9.6%

How did CCC(Sc1ncccc1C(=O)Oc1cccc([N+](=O)[O-])c1)C(=O)Nc1ccccc1OC (centres undefined) do in these assays?
Rango dissoc inh: 7%; GLA inh pH 4.5: -5; miR-21 FLuc: -4%; Rango-impB inh: 1.2%

How did COc1ccc2cc(Br)ccc2c1CC(=O)N(C)C do in these assays?
Rango dissoc inh: 21%; GLA inh pH 4.5: 0; miR-21 FLuc: -4%; Rango-impB inh: -1.5%

What do the screens show for `Cc1ccsc1C(=O)NNC(=S)NCC(C)C`?
Rango dissoc inh: 6%; GLA inh pH 4.5: -2; miR-21 FLuc: -1%; Rango-impB inh: 5.3%

How did COC(=O)c1ccc(C(NC(=O)OCc2ccccc2)/C(F)=C/[C@@H](C)C(=O)O)cc1 (some centres undefined) do in these assays?
Rango dissoc inh: 17%; Rango-impB inh: -1.7%

How did O=C1Nc2ccccc2C12OCC1(CO2)COC2(OC1)C(=O)Nc1ccccc12 (centres undefined) do in these assays?
Rango dissoc inh: 3%; GLA inh pH 4.5: 10; miR-21 FLuc: 13%; Rango-impB inh: 6.4%

How did CC(C)Cn1c(-c2nn(C)cc2Cl)n[nH]c1=S do in these assays?
Rango dissoc inh: 28%; GLA inh pH 4.5: 5; miR-21 FLuc: -1%; Rango-impB inh: -3.1%

What do the screens show for `CC(NC(=O)c1ccc2c(c1)OCO2)c1ccccc1` (centres undefined)?
Rango dissoc inh: -1%; miR-21 FLuc: -6%; Rango-impB inh: -0.7%

Results for Clc1ccc(C2[C@H]3CN(CC4CCCCC4)[C@H](c4ccccc4)C34CC2(c2cccnc2)C4)cn1 (some centres undefined) ?
Rango dissoc inh: -10%; GLA inh pH 4.5: -6&-3; miR-21 FLuc: -2%; Rango-impB inh: 3.0%

What do the screens show for `COc1ccc(Br)c(C(=O)OCC(=O)NC2CCCCCC2)c1`?
Rango dissoc inh: -8%; Rango-impB inh: 4.1%

What do the screens show for `CSc1nc(N2CCN(CCO)CC2)c2sc3nc(-c4ccco4)c4c(c3c2n1)CCC4`?
GLA inh pH 4.5: 2; miR-21 FLuc: -1%

What do the screens show for `O=c1sc2ccccc2n1COc1ccc(Cl)cc1`?
Rango dissoc inh: 3%; GLA inh pH 4.5: -1; miR-21 FLuc: -47%; Rango-impB inh: -0.2%

Results for Cc1nnc(SC(C)C(=O)Nc2ccc(Cl)cc2Cl)[nH]c1=O (centres undefined) ?
Rango dissoc inh: 1%; Rango-impB inh: -3.5%

How did O=c1c2ccccc2nc(-c2ccccc2)n1CCN1CCOCC1 do in these assays?
Rango dissoc inh: -6%; GLA inh pH 4.5: 2; miR-21 FLuc: -8%; Rango-impB inh: 12%

What do the screens show for `CCN(CC)C1CCN(C(=O)c2cc(COc3ccc(-n4cncn4)cc3)on2)C1` (centres undefined)?
Rango dissoc inh: -2%; miR-21 FLuc: 0%; Rango-impB inh: 1.4%

What do the screens show for `NNc1nc(N)c2c(n1)-c1ccccc1CC21CCCC1`?
Rango dissoc inh: -3%; GLA inh pH 4.5: 6; miR-21 FLuc: 10%; Rango-impB inh: -2.7%

Results for CC(Sc1nc(C(C)(C)C)cc(-c2ccccc2)c1C#N)C(=O)Nc1ccccc1 (centres undefined) ?
Rango dissoc inh: -9%; GLA inh pH 4.5: 0; miR-21 FLuc: -4%; Rango-impB inh: -0.8%

How did Cc1c(CC(=O)NCC(=O)O)c(=O)oc2cc3occ(-c4ccccc4)c3cc12 do in these assays?
Rango dissoc inh: 9%; miR-21 FLuc: -6%; Rango-impB inh: 2.2%

Quoted at random: 5 entries already listed, in no set order.
Results for CC(Sc1nc(C(C)(C)C)cc(-c2ccccc2)c1C#N)C(=O)Nc1ccccc1 (centres undefined) ?
Rango dissoc inh: -9%; GLA inh pH 4.5: 0; miR-21 FLuc: -4%; Rango-impB inh: -0.8%

How did COC(=O)Cc1c(C)nc2nc(Cc3ccccc3)[nH]n2c1=O do in these assays?
Rango dissoc inh: 1%; GLA inh pH 4.5: -2; miR-21 FLuc: -3%; Rango-impB inh: 0.3%

What do the screens show for `CSCCOC(=O)COc1ccc(/C=N/NC(=O)c2nn(C)cc2Cl)cc1`?
Rango dissoc inh: 1%; GLA inh pH 4.5: 2; miR-21 FLuc: -26%; Rango-impB inh: -1.6%

What do the screens show for `CC(NC(=O)c1ccc2c(c1)OCO2)c1ccccc1` (centres undefined)?
Rango dissoc inh: -1%; miR-21 FLuc: -6%; Rango-impB inh: -0.7%

What do the screens show for `COc1ccc(Br)c(C(=O)OCC(=O)NC2CCCCCC2)c1`?
Rango dissoc inh: -8%; Rango-impB inh: 4.1%

Further entries follow:
Results for COc1ccc(CN2CC(C(=O)NCCCN3CCN(Cc4ccccc4)CC3)CC2=O)cc1 (centres undefined) ?
Rango dissoc inh: -14%; GLA inh pH 4.5: -3; miR-21 FLuc: -3%; Rango-impB inh: -1.2%

How did CCOC(=O)CCCNC(=O)COC(=O)c1cc(Br)c(Br)s1 do in these assays?
Rango dissoc inh: 0%; GLA inh pH 4.5: -17; miR-21 FLuc: 1%; Rango-impB inh: -0.2%

Results for N#Cc1ccc(S(=O)(=O)NC2CCN(Cc3ccccc3)CC2)cc1 ?
Rango dissoc inh: 11%; GLA inh pH 4.5: 1; miR-21 FLuc: -3%; Rango-impB inh: 0.7%

Results for Cc1ccc(-c2ccc(C(=O)O)o2)cc1Cl ?
Rango dissoc inh: -5%; GLA inh pH 4.5: 0; miR-21 FLuc: -32%; Rango-impB inh: 0.2%

How did Cc1nnc(SCC(=O)N2CCCC(N3CCN(c4ccc(F)cc4)CC3)C2)o1 (centres undefined) do in these assays?
Rango dissoc inh: -1%; miR-21 FLuc: 0%; Rango-impB inh: -1.1%

Results for Cc1cc(C)nc(SCCn2c(N3CCOCC3)nc3c2c(=O)[nH]c(=O)n3C)n1 ?
Rango dissoc inh: 3%; GLA inh pH 4.5: 5[21.1 µM]; miR-21 FLuc: 0%; Rango-impB inh: -3.6%

What do the screens show for `CCOc1ccc(OCCC(=O)OCC(=O)c2c(N)n(C)c(=O)n(C)c2=O)cc1`?
Rango dissoc inh: 0%; Rango-impB inh: -0.3%

How did CCN(CCS(=O)(=O)c1ccc(Cl)cc1)C(=O)Nc1ccc(Cl)cc1 do in these assays?
Rango dissoc inh: -4%; GLA inh pH 4.5: -1; miR-21 FLuc: -4%; Rango-impB inh: 0.8%

What do the screens show for `CC(=O)Nc1sc(C)c(C)c1C(=O)OCC(=O)N(C)C1CCS(=O)(=O)C1` (centres undefined)?
Rango dissoc inh: 16%; GLA inh pH 4.5: 0; miR-21 FLuc: -10%; Rango-impB inh: -1.0%

What do the screens show for `CSc1ccccc1C(=O)NC(C)c1ccc(-n2ccnc2)cc1` (centres undefined)?
Rango dissoc inh: -14%; miR-21 FLuc: -4%; Rango-impB inh: -2.4%

How did Cc1ccc(NC(=O)C(C)OC(=O)COc2cccc(C(F)(F)F)c2)cc1 (centres undefined) do in these assays?
Rango dissoc inh: 17%; Rango-impB inh: 5.4%

How did N#Cc1ccc(Oc2nc(C(N)=O)cc(-c3ccccc3)n2)cc1 do in these assays?
Rango dissoc inh: -14%; GLA inh pH 4.5: 17; miR-21 FLuc: 0%; Rango-impB inh: -1.5%

Results for C/C(=N\NC(=O)C(=O)Nc1ccc(C)c(Cl)c1)c1ccncc1 ?
Rango dissoc inh: 15%; GLA inh pH 4.5: -1; miR-21 FLuc: 2%; Rango-impB inh: -0.3%
